Compound activity: PubChem BioAssay, several laboratories
Ecoli growth: blocks Escherichia coli growth; OD600 absorbance (concentration not given with the values); AID 1053175; hit rate 0.21% among 330,000; OD600, 23 h; active compounds read low;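 active = OD600 absorbance below the run mean of sample wells minus 3.6 SD, in any replicate, cut at about 0.56 in these data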;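 also: stock transfer was 300 nL into about 60 µL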
UCH37 DUB inh: human UCH37 deubiquitinating enzyme inhibition. Q9Y5K5. hit rate 0.33% among 330,000. purified proteasome/UCH37, Ub-AMC cleavage fluorescence. inhibition, % (test concentration not listed);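 active = mean of two replicates above 20%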;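 also: 0% = compound-free wells with enzyme and 100% = wells lacking proteasome; stock transfer was 100 nL into about 20 µL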
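system = Proteasome-associated human UCH37 deubiquitinase | amount = 0.15 nM proteasome as dispensed | medium = pH 7.4 Tris-HCl (50 mM) with ovalbumin, ATP-MgCl2, DTT | incubation = 30 min preincubation with enzyme, 25 min cleavage at room temperature | detection = AMC fluorescence 355/460 nm | read-out basis = percent inhibition | controls = no-proteasome and no-compound wells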
FGF22 binding: shifts melting point of recombinant human FGF22. Q9HCT0. recombinant FGF22 thermal shift, SYPRO orange fluorescence; percent of sucrose octasulfate shift, DMSO zero. calls only at 9.99 µM. hit rate 1.5% among 340,000. AID 651658;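 active = melting point raised past a set limit in the mean and every replicate; three in four hits are not shown here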
Target sequence (Q9HCT0 whole entry, looked up): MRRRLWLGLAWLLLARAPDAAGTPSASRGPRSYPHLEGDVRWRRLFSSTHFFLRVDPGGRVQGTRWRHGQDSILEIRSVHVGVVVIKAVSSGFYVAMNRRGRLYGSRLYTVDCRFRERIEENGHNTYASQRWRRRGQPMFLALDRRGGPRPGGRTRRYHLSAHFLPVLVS
Beta2AR agonist: human beta-2 adrenergic receptor agonism by FAP; P07550; Am2.2-beta2AR cells, FAP receptor internalization, flow cytometry; reference of the scale not given here; response, % (no concentration beside the values); hit rate 0.43% among 340,000; AID 504454;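 active = response above a set limit, near 3 SD of response in nonfluorescent compounds, cut at about 42% in these data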;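 also: stock transfer was 100 nL into about 11 µL; a reference agonist was the positive control; negative values mostly stem from fluorescent compounds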
Target sequence (P07550 whole entry, looked up): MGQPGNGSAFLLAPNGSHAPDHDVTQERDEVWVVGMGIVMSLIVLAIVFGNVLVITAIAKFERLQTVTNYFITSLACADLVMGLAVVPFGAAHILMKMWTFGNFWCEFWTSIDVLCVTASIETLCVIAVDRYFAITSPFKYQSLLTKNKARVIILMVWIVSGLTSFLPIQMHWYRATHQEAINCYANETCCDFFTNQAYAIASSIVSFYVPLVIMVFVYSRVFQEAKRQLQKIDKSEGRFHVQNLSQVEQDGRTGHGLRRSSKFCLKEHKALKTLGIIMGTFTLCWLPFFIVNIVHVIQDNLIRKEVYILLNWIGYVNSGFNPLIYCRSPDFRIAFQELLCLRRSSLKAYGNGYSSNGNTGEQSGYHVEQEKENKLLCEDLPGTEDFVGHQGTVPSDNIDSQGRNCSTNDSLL
ALR H2O2 inh: blocks human ALR sulfhydryl oxidase activity | purified ALR, DTT oxidation, H2O2 HRP-luminol luminescence | inhibition, % (no concentration beside the values) | hit rate 3.8% among 290,000 | AID 485317;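 active = mean and each replicate at 75% or more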;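 also: stock transfer was 7.5 nL into about 7.5 µL; 0% = neutral wells and 100% = wells with inactivated enzyme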
LANA-H2A inh: blocks KSHV LANA binding to histone H2A/H2B | Q9QR71 | hit rate 0.6% among 320,000 | cell-free LANA-H2A/H2B peptide, fluorescence polarization | inhibition, % (no concentration beside the values); in the data active = inhibition mostly above about 10%, no sharp cut-off; inactive = mostly below about 6.7%;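 also: stock transfer was 7.5 nL into about 10 µL; 0% = median of vehicle wells and 100% = median of positive control wells; one replicate is shown; the record names a cut of 25% in any replicate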
HNF4A DNA FP: change in binding of human HNF4 alpha to DNA; activity change, % at 10 µM; P41235; hit rate 0.3% among 360,000; HNF4a-FITC DNA binding, fluorescence polarization, 1 h; in the data active = activity change above about 30%, passing the limit was not always enough;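 also: controls were the assay level and a saturating level of protein; the project sought stronger binding though the title names inhibitors; some compounds called inactive have numbers as strong as hits; positive values seem to mean higher polarization but the record does not say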
Target sequence (P41235 whole entry, looked up): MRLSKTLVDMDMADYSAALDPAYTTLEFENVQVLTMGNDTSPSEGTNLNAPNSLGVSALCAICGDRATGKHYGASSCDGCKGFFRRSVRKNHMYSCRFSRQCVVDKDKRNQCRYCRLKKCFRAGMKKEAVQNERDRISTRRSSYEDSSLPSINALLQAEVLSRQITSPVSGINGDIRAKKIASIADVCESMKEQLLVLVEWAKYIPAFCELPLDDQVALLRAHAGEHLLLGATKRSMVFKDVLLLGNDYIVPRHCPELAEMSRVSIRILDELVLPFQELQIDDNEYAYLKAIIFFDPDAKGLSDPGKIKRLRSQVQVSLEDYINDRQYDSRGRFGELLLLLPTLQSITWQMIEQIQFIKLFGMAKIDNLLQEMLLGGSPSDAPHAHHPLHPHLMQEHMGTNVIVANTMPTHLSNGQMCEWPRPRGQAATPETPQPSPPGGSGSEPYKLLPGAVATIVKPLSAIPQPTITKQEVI
* hit, by the source's call; i = inactive; . = not tested or not shown. Only part of the results is shown (hit frequency here may not be typical).

mol	Ecoli growth	UCH37 DUB inh	FGF22 binding	Beta2AR agonist	ALR H2O2 inh	LANA-H2A inh	HNF4A DNA FP
Cn1c(/C(C#N)=N/O)nc2ccccc21	.	.	.	-7	-10	9.1	2.5
O=C1CC2(CCCCC2)Oc2ccc(F)cc21	0.65	-1.7	.	-7	1	0.2	0.7
CN1C(=O)C(=O)/C(=C(/O)c2ccccc2)C1c1ccc([N+](=O)[O-])cc1 (centres undefined)	0.65	11	i	9	20	-2.0	-1.6
COc1ccc(Cl)cc1NC(=O)CN(C)C(=O)C1CCN(C(=O)Nc2ccccc2)CC1	0.67	2.8	i	-1	-3	5.2	4.3
Cc1cccc(C(=O)N2CCCC(N3CCN(c4ccccc4F)CC3)C2)n1 (centres undefined)	0.66	-1.9	i	7	1	2.5	-2.0
CC(=O)NCCn1c(SCC(=O)NCCC2=CCCCC2)nc2ccccc2c1=O	0.74	3.1	.	-11	-3	3.2	-2.5
OCC1(CCc2ccccc2)CCN(Cc2cc(Cl)ccc2O)CC1	.	.	i	7	6	1.4	-3.3
Cc1c(-c2ccc(F)cc2)nc(N)c(C#N)c1-c1ccco1	0.75	-94	.	0	39	-3.8	39*
Fc1cccc(CN(C2=NCCN2)c2c(Cl)cccc2Cl)c1	0.65	0.8	i	18	-7	5.0	0.2
COc1cc(C(=O)NCC2CCCO2)cc(Br)c1OCc1ccccc1 (centres undefined)	0.65	2.3	i	4	7	2.4	0.8
CCOC(=O)COc1c(OC)cc(Cl)cc1C1Nc2ccccc2C(=O)N1c1ccc(F)cc1 (centres undefined)	0.68	-131	.	3	-6	-3.5	-0.7
CCOc1ccc(/C=N/NC(=O)c2cc(-c3cccn3C)n[nH]2)cc1	.	.	i	4	-3	3.1	-2.2
CCCCN(CCCC)CCNC(=O)CN1C(=O)COc2ccc(S(=O)(=O)N3CCOCC3)cc21	0.65	1.2	i	3	-4	4.0	1.2
CS(=O)(=O)N(CC(=O)NCCSCc1ccccc1)c1ccccc1Br	0.71	3.8	i	-5	-32	6.5	3.1
COC(=O)c1cn(C(=O)OC)c2ccccc12	0.69	0.8	.	-1	-1	3.2	4.2
CC(C)NC(=O)C(=O)NCCCOC(C)C	0.67	2.2	.	-4	2	4.0	3.0
O=C(NC(=S)Nc1cc([N+](=O)[O-])ccc1Cl)c1ccccc1	0.72	1.2	.	-11	-7	-1.9	2.4
CCOC(=O)N1CCN(C(=O)C2CC(=O)N(c3ccc(C)cc3)C2)CC1 (centres undefined)	0.7	2.2	i	1	-15	2.5	2.1
O=C(c1cccc(-n2cccc2)c1)N1CCN(S(=O)(=O)c2ccc(F)cc2)CC1	0.69	3.9	i	-5	3	-0.4	-8.4
O=C(CCN1C(=O)c2ccccc2C1=O)Nn1cnnc1	0.69	7.6	.	-2	-8	-0.7	1.5
COc1cccc(C2CC(c3ccccc3)=NN2S(=O)(=O)c2ccc(C)cc2)c1OC (centres undefined)	0.75	3.3	i	-179	0	-13	127
CN(C)Cc1cccc([N+](=O)[O-])c1O	0.72	4.3	i	-4	-3	3.3	0.2
O=C(O)c1ccc(CNC(=O)c2ccc3c(c2)OCCO3)cc1	0.6	2.4	i	8	2	-8.0	4.8
COc1ccc(NC(C)=O)cc1C	0.69	0.8	i	-11	1	6.1	1.2
CC1Cc2cc(/C(O)=C3/C(=O)C(=O)N(Cc4cccnc4)C3c3cccc(O)c3)ccc2O1 (centres undefined)	0.74	13	i	-2	.	8.3	2.0

A second format for some results above:
COc1cccc(C2CC(c3ccccc3)=NN2S(=O)(=O)c2ccc(C)cc2)c1OC (centres undefined)
  Ecoli growth = 0.75 | UCH37 DUB inh = 3.3 | FGF22 binding = i | Beta2AR agonist = -179 | ALR H2O2 inh = 0 | LANA-H2A inh = -13 | HNF4A DNA FP = 127
Cc1c(-c2ccc(F)cc2)nc(N)c(C#N)c1-c1ccco1
  Ecoli growth = 0.75 | UCH37 DUB inh = -94 | FGF22 binding = . | Beta2AR agonist = 0 | ALR H2O2 inh = 39 | LANA-H2A inh = -3.8 | HNF4A DNA FP = 39*
Cn1c(/C(C#N)=N/O)nc2ccccc21
  Ecoli growth = . | UCH37 DUB inh = . | FGF22 binding = . | Beta2AR agonist = -7 | ALR H2O2 inh = -10 | LANA-H2A inh = 9.1 | HNF4A DNA FP = 2.5

Further entries.
mol	Ecoli growth	UCH37 DUB inh	FGF22 binding	Beta2AR agonist	ALR H2O2 inh	LANA-H2A inh	HNF4A DNA FP
COc1ccc(CNC(=O)Cn2c(=O)oc3cc(S(=O)(=O)N4CCCC4)ccc32)cc1	0.69	2.6	i	-2	-1	4.7	2.5
O=C(O)CCC(=O)NC1CCCCC1	0.65	0.5	.	-2	1	2.7	-4.4
CCCCCOCC1CC(C/C(C)=N/NC(N)=S)C(=O)O1 (centres undefined)	.	.	i	3	1	-0.3	-0.2
CCCn1c(=S)[nH]c2cc(C(=O)N3CCN(C4CCCCC4)CC3)ccc2c1=O	0.65	3.4	i	2	1	-2.3	-1.4
COC(=O)/C(=C/c1cn(C(C)=O)c2ccccc12)[N+](=O)[O-]	0.66	2.6	i	3	.	.	1.2
O=C(Cc1cccs1)N/N=C/C=C/c1ccco1	.	.	i	0	-3	6.6	-7.1
CCc1ccc2[nH]c3nc(C)cc(C)c3c(=O)c2c1	0.74	-66	.	-2	-3	3.7	-1.3
N#CCCSCc1ccc(OCC(=O)O)cc1	0.71	0.8	.	1	.	4.5	1.2
CCOC(=O)Cc1nnc(NC(=O)COc2ccc(F)cc2)s1	0.72	0.9	.	4	0	-5.4	4.1
CC/C(=N\NC(=O)c1ccc(CN(C)S(=O)(=O)c2ccc(C)cc2)cc1)c1ccc(OC(F)F)cc1	.	.	i	3	-2	-2.4	0.8
COc1cc(/C=N/Nc2ccc(Cl)c(C(=O)O)c2)ccc1OC(=O)c1ccc(F)cc1	.	.	i	1	72	-2.0	-0.2
CCc1ccc(CNC(=O)CCC(=O)n2ncc3cc(C)ccc32)cc1	0.67	1.8	i	-5	1	3.9	-2.4
Cc1cccc(NS(=O)(=O)c2cccc(C(=O)N3CCCC3)c2)c1	0.57	1.5	.	6	-8	0.5	1.3
CC(C)(C)C(=O)NC(=S)Nc1sc2c(c1C#N)CCCCC2	0.67	3.5	.	.	13	0.8	5.4
O=C(CSc1nc2[nH]ncc2c(=O)[nH]1)Nc1ccccc1F	0.65	5.2	i	3	-7	-2.1	1.6
Cc1ccc(-n2cc(CN3CCN(C(=O)c4ncn[nH]4)CC3)c(-c3ccc(F)cc3)n2)cc1	0.66	1.2	i	10	5	-2.9	0.9
O=C(CN1C(=O)c2ccccc2C1=O)OC(C(=O)c1ccc(Cl)cc1)c1ccccc1 (centres undefined)	0.71	3.9	.	0	-4	-6.7	2.0
COc1ccc(-n2cnnc2SCC(=O)Nc2ccccc2F)cc1	0.68	1.5	i	-3	-10	-4.6	3.6
CC(=O)N(C)C(c1ccc(N(C)C)cc1)c1nnnn1-c1c(C)cccc1C (centres undefined)	0.72	4.3	i	5	.	-1.7	-1.4
CC1CCCCC1NC(=O)CSc1nc2ccccc2c(=O)n1Cc1ccco1 (centres undefined)	0.71	-0.6	i	7	-1	2.6	-1.3
Cc1onc(-c2ccccc2)c1C(=O)N1CCN(S(=O)(=O)c2ccc(OC(F)(F)F)cc2)CC1	0.66	4.5	i	-13	-1	-2.7	0.4
Cc1nnc(SCC(=O)Nc2ccc(Br)cc2)n(N)c1=O	0.66	1.5	i	1	-24	4.0	0.9
CC(c1nnc(SCC(=O)N2CCc3ccccc32)n1-c1ccc(Cl)cc1)N(C)C (centres undefined)	0.7	2.1	.	-3	-3	4.8	-2.6
Cc1nn(CC(=O)N/N=C/c2cccs2)c(C)c1[N+](=O)[O-]	.	.	i	1	0	-8.7	1.3
CCC(C(=O)Nc1ccccc1F)n1nc(C)c2c(C)n(-c3ccccc3)nc2c1=O (centres undefined)	0.7	-25	i	10	-10	-1.5	3.8
CCN(Cc1ccccc1)C(=O)COc1ccccc1	0.67	2.0	i	3	-5	-2.9	-0.6
OC(c1nnc(-c2ccccc2)o1)c1cccs1 (centres undefined)	0.63	-2.5	i	2	-6	4.0	1.5
O=C(COC(=O)c1ccc(S(=O)(=O)C(F)F)cc1)Nc1ccccc1C(=O)NC1CC1	0.69	-0.9	i	8	.	2.9	-2.7
COc1ccc(Cc2nc(-c3ccc(NC(=O)c4cccnc4)cc3)no2)cc1	0.79	0.0	.	-2	-11	2.0	1.7
COc1ccc(Cl)cc1NC(=O)CN(C)CC(=O)Nc1cc(OC)c(OC)c(OC)c1	0.67	3.9	i	-4	.	2.9	1.3
CC(=O)N1CCN(c2nc(-c3cccs3)nc3ccccc23)CC1	0.67	6.0	i	-5	-1	3.0	-1.7
CC(=O)/C(=N\Nc1ccccc1Cl)Sc1nnc(-c2ccccc2)n1-c1ccccc1	.	.	.	-21	-1	0.3	5.6
CCn1c(=O)c(C(=O)NNS(=O)(=O)c2ccc(Cl)cc2)c(O)c2ccccc21	0.67	2.7	.	7	34	-2.3	-0.9
Cc1ccccc1NC(=O)C1CCC(=O)N1 (centres undefined)	0.68	0.3	i	-4	-10	1.2	1.3
Cc1ccc(Nc2ncnc3c2oc2ccccc23)cc1	0.74	-6.1	.	10	-3	0.0	0.7
COCCCNS(=O)(=O)c1cc2c3c(c1)C(C)C(=O)N3CCC2 (centres undefined)	0.71	-0.9	i	-2	-14	-5.1	-1.2
CCC(=O)N1CC23C=CC(CC2CC12CCCCC2)O3 (centres undefined)	0.68	1.4	.	5	.	-1.6	-1.4
Cc1nc(/N=C(\N)NC(=O)c2ccccc2)nc2ccccc12	.	.	i	11	-4	-0.6	-1.3
O=C(CN1CCCC1)Nc1ccc(Br)cc1[N+](=O)[O-]	0.64	5.9	i	0	-8	2.8	2.1
Cc1cccc2cc(CN(Cc3cccs3)Cc3nnnn3Cc3ccccc3)c(=O)[nH]c12	0.67	-2.1	.	2	-6	2.6	0.4
Cc1ccccc1C1=N/C(=C/c2cccnc2)C(=O)O1	0.71	1.2	i	0	-2	-0.6	1.3
Cn1ccc(C(=O)OCC(=O)Nc2ccccc2)n1	0.66	2.5	i	4	.	.	1.2
COc1ccc(/C=C/C(=O)C2CC2)cc1Cn1nc(C)c([N+](=O)[O-])c1C	0.67	2.1	i	-7	-12	10	-2.4
CC(C)(C)S(=O)N1Cc2cn(Cc3ccccc3)c(=O)cc2[C@H]1CCO (some centres undefined)	0.68	-0.8	i	6	.	.	-3.6
C/C(=N/NS(=O)(=O)c1ccc(CC(C)C)cc1)c1ccncc1	.	.	i	2	-46	-3.4	0.9
Nn1cnc2scc(-c3ccc(Cl)cc3)c2c1=O	0.69	0.1	i	-2	-2	2.4	-0.2
O=C1C2C3C=CC(C3)C2C(=O)N1c1nc2ccccc2s1 (centres undefined)	0.75	-2.5	.	-10	3	-0.1	1.9
C/C(=N\NC(=O)c1n[nH]c2c1CCC2)c1cccs1	.	.	i	-15	-3	1.0	-3.9
Cc1c(C(=O)N2CCOCC2)oc2ccc(Br)cc12	0.7	-1.2	.	-1	-2	0.6	3.2
Cc1ccc2occ(/C=N/NC(N)=S)c(=O)c2c1	.	.	i	9	-23	-2.9	-4.8

Continued:
mol	Ecoli growth	UCH37 DUB inh	FGF22 binding	Beta2AR agonist	ALR H2O2 inh	LANA-H2A inh	HNF4A DNA FP
CC(Cl)C(=O)Nc1c2c(nn1-c1ccccc1)CSC2 (centres undefined)	0.7	-0.5	i	2	2	-2.6	5.3
O=S(=O)(c1ccc(-c2cn3ccccc3n2)cc1)N1CCOCC1	0.76	-433	.	-16	-8	0.1	0.2
Cc1sc2ncnc(SCC(=O)N3CCC(c4noc5ccc(F)cc45)CC3)c2c1C	0.68	0.3	.	-9	-2	-4.6	-3.8
C/C(=N\NC(=O)c1ccccc1)c1ccc2c(c1)OCO2	.	.	.	4	4	3.8	-0.9
O=C1CN(C(=O)COc2ccc(Br)cc2Br)c2ccccc2N1	0.66	0.4	i	-6	-3	-1.5	9.2
